High-throughput results (PubChem BioAssay)
HNF4A DNA FP = change in binding of human HNF4 alpha to DNA | P41235 | activity change, % at 10 µM | hit rate 0.3% among 360,000 | HNF4a-FITC DNA binding, fluorescence polarization, 1 h; in the data active = activity change above about 30%, passing the limit was not always enough;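 note: controls were the assay level and a saturating level of protein; the project sought stronger binding though the title names inhibitors; some compounds called inactive have numbers as strong as hits; positive values seem to mean higher polarization but the record does not say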
Ecoli growth = E. coli growth inhibition. Escherichia coli growth, OD600, 23 h; hits give low values. OD600 absorbance (test concentration not listed). hit rate 0.21% among 330,000. AID 1053175;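 active = OD600 absorbance below the run mean of sample wells minus 3.6 SD, in any replicate, cut at about 0.56 in these data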;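 note: stock transfer was 300 nL into about 60 µL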
Vif A3G = HIV-1 Vif–A3G interaction blockers – biochemical, TR-FRET, GST-Vif 1-94, biotin-A3G peptide, dose response retest, primary screen (AID 1117319); TR-FRET GST-Vif / biotin-A3G peptide binding; higher % means a stronger effect; test concentration not given here; strong numbers were not always called active; hit rate 0.57% among 260,000; inhibition, %, or IC50 in µM where a hit was titrated;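 active = above the screen mean plus three standard deviations and confirmed in dose response; inconclusive = results disagree or hit not tested in dose response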;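 note: Vif residues 1-94 fused to GST binding biotinylated APOBEC3G peptide 110-148; 0% = full assay without inhibitor and 100% = GST in place of GST-Vif; retest series ran down from 100 µM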
rRNA inh HTS = inhibits bacterial ribosomal RNA function over humanized ribosomes; E. coli WT GFP vs humanized-ribosome RFP mutants, fluorescence, 24 h; hits give low values; DMSO median 0, no signal -100; hit rate 1.6% among 350,000; GFP signal change (wild-type ribosome), % (concentration not given with the values);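 active = significant combined selectivity score with lowered wild-type GFP, culture density cut under 30%, mutant RFP and density less affected; inactive = any of these conditions unmet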; note: one replicate is shown; some compounds called inactive have numbers as strong as hits
ALR H2O2 inh = blocks human ALR sulfhydryl oxidase activity | inhibition, % (test concentration not listed) | purified ALR, DTT oxidation, H2O2 HRP-luminol luminescence | AID 485317 | P55789 | hit rate 3.8% among 290,000;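 active = mean and each replicate at 75% or more; inconclusive = only one of the two met; inactive = neither met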;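 note: stock transfer was 7.5 nL into about 7.5 µL; 0% = neutral wells and 100% = wells with inactivated enzyme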
Target sequence (P55789 whole entry, looked up): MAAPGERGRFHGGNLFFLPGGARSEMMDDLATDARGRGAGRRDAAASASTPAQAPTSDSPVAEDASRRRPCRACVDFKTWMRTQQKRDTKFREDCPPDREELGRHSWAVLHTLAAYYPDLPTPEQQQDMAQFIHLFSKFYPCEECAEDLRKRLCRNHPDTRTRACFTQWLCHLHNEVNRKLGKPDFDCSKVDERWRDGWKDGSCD
FGF22 binding = FGF22 (human) thermal shift binding; Q9HCT0; recombinant FGF22 thermal shift, SYPRO orange fluorescence; percent of sucrose octasulfate shift, DMSO zero; calls only at 9.99 µM; hit rate 1.5% among 340,000;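 active = melting point raised past a set limit in the mean and every replicate; inconclusive = no clear call; three in four hits are not shown here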
Target sequence (Q9HCT0 whole entry, looked up): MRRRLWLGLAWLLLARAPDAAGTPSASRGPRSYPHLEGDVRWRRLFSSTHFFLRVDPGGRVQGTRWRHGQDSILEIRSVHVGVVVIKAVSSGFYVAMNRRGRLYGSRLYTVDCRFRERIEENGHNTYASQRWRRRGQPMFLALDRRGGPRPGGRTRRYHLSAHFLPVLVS
MLL AF4-AF9 inh = blocks AF4 peptide binding to human AF9. AlphaScreen, biotin-AF4 peptide binding to FLAG-AF9. inhibition, % at 10 µM. hit rate 0.47% among 350,000. AID 651704;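 active = every replicate reaching a set inhibition limit, whatever the replicate mean, cut at about 25% in these data; inconclusive = mean inhibition reaches that limit but some replicates miss it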;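 note: 0% = plate neutral control median and 100% = total signal loss; the record names both 10 and 1 µM as test concentration; the first replicate is given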
Target sequence (P42568 whole entry, looked up): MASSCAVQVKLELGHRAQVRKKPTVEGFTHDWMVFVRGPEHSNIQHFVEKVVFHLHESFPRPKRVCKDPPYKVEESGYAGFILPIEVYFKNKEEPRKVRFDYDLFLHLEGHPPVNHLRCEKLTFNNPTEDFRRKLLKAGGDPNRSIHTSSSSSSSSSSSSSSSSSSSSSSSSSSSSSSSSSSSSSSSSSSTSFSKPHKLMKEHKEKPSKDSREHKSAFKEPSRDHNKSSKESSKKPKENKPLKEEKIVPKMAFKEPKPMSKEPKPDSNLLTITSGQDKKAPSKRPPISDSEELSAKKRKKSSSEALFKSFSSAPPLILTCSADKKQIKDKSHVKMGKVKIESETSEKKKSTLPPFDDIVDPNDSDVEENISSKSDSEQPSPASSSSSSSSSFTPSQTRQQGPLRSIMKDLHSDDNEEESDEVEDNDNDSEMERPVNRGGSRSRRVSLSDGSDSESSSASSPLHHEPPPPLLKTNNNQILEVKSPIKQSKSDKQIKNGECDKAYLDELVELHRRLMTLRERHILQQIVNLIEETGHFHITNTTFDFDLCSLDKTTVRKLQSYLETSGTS
rRNA inh HTS OD600 = further read-out of rRNA inh HTS, marked with its call; OD600 change, %; measured here: OD600 growth;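 optical density of the mix in the first replicate; 0 = DMSO median and -100 = no signal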
rRNA inh HTS RFP = further read-out of rRNA inh HTS, marked with its call; RFP signal change, %; measured here: RFP humanized mutant strains;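 first replicate; 0 = DMSO median and -100 = no signal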
An asterisk follows results filed as active; i = inactive; ? = inconclusive; . = not tested or not shown; & = joins results of further samples.

Every second line gives: ALR H2O2 inh	FGF22 binding	HNF4A DNA FP	rRNA inh HTS RFP	rRNA inh HTS OD600	Vif A3G	rRNA inh HTS	MLL AF4-AF9 inh	Ecoli growth
1. CC(C)(C)OC(=O)N(Cc1ccccc1)Cc1cccc(OCc2cccc(NC(=O)C3CC3)c2)c1
→ .	i	-0.1	-2.0	2	.	3	1.3	.
2. COc1ccc(C(=O)Nc2ccc(C)c(S(=O)(=O)N3CCCCCC3)c2)cc1
→ -9	.	-0.8	.	.	-2%	.	-1.0	0.64
3. Cc1nn(Cc2ccccc2)c(C)c1C(=O)NCCCN1CCCC1=O
→ -3	i	2.0	-3.3	11	17%	2	-1.8	0.67
4. O=C(NCC(=O)N(c1ccccc1)C(C(=O)NC1CCCC1)c1cccnc1)c1ccco1 (centres undefined)
→ 3	.	6.0	.	.	-1%	.	.	0.77
5. O=C(Nc1nc(-c2ccccn2)cs1)c1ccccc1-n1cnnn1
→ 14	.	2.1	-1.3	-51	-11%	-26	5.5	0.67
6. Cc1ccc(S(=O)(=O)Nc2cc(NC(=O)CN3CCOCC3)ccc2Cl)cc1
→ -23	.	1.5	.	.	5%&0%	.	.	0.7
7. Cc1ccc(N(Cc2ccccc2F)S(C)(=O)=O)c(C)c1
→ -4	i	-0.1	0.1	-10	-1%	-14	-1.8	0.68
8. CCN(CC)C(=O)C1=C(C)N(Cc2ccc(OC)cc2)C(=O)C(CC(=O)NC2CC2)C1 (centres undefined)
→ .	i	4.0	-4.3	7	.	2	-0.5	.
9. Cc1ccc(-n2ncc3c(=O)[nH]c(SCC(=O)N4CC(=O)Nc5ccccc54)nc32)cc1
→ .	i	-1.6	-0.3	0	-3%	2	-1.1	0.72
10. Cc1cnc(C(=O)OC(C)C(=O)Nc2ccc3c(c2)OCCO3)cn1 (centres undefined)
→ -2	i	4.7	0.0	12	-16%	13	0.9	.
11. Cc1ccc(CN=c2c([N+](=O)[O-])nn(-c3cccc(C)c3)n2O)cc1
→ -3	i	1.0	14	-3	?	-2	16	0.65
12. CC1(C)Cc2ccccc2-c2nnc(-c3ccc(O)cc3)n21
→ 7	i	0.9	-0.6	6	1%	10	-86	0.71
13. COc1cc(NS(=O)(=O)c2ccc(NC(=O)c3ccc([N+](=O)[O-])cc3)cc2)ncn1
→ 16	i	0.6	-0.1	7	4%	6	-1.0	0.66
14. C[C@@H]1CN([C@H](C)CO)C(=O)c2cc(N(C)C)ccc2O[C@@H](C)CCCCO[C@H]1CN(C)S(=O)(=O)c1cccs1
→ .	i	.	-1.9	-3	.	-6	2.2	.
15. C[C@H](CO)N1C[C@H](C)[C@H](CN(C)Cc2ccncc2)Oc2ccc(NS(=O)(=O)c3ccc(F)cc3)cc2C1=O
→ .	i	.	0.2	-6	.	-2	-0.7	.
16. COc1ccc(Oc2nnc(-c3ccccc3)cc2C#N)cc1
→ -3	.	0.0	.	.	6%	.	.	0.72
17. Cc1cccc(NC(=O)Cc2c(F)cccc2Cl)n1
→ -3	i	-4.5	-0.8	5	.	0	-2.3	0.7
18. COC(=O)Nc1c(C(=O)OC)cc(OC)c(OC)c1OC
→ -3	.	1.0	.	.	-1%	.	.	0.73
19. CC1CCN(c2c(NCC3CCC(C(=O)NCc4ccccc4)CC3)c(=O)c2=O)CC1 (centres undefined)
→ .	i	-1.0	1.2	-2	-5%	-1	1.7	0.7
20. O=[N+]([O-])/C=C/c1c(OCc2ccccc2)ccc2ccccc12
→ -21	.	-2.4	.	.	-2%	.	.	.
21. COc1cccc(Nc2nc(-c3cccs3)nc3ccccc23)c1
→ -5	i	4.4	4.6	-60	.	-41	-4.0	0.71
22. N#Cc1ccc(C(=O)NCCCSc2ccccc2)cc1
→ -4	i	1.3	-2.2	2	.	-1	0.7	0.71
23. CC(C)NC(=O)Nc1ccc2c(c1)CC(=O)N([C@@H](C)CO)C[C@@H](C)[C@@H](CN(C)S(=O)(=O)c1cccs1)O2
→ .	i	.	-1.3	-2	.	-1	-11	.
24. CSc1nc(N)nc(SC2C=CCCC2)c1C#N (centres undefined)
→ .	i	0.8	-3.4*	-1.9*	-15%	-24*	2.0	0.68
25. C[C@@H](NC(=O)[C@H]1[C@H](CO)[C@H]2Cn3c(cccc3=O)[C@@H]1N2Cc1ccccc1)c1ccccc1
→ .	i	.	-1.7	1	.	1	-3.1	.
26. CCOc1ccc(C(CC(=O)O)NC(=O)COc2ccccc2)cc1OC (centres undefined)
→ -4	.	3.6	1.9	17	6%	16	-3.0	0.65
27. COc1cc(C(=O)NCC2(c3ccccc3)CCCC2)cc(OC)c1OC
→ 3	i	-1.5	0.7	-12	.	-10	-24	0.64
28. O=C(C1CCN(S(=O)(=O)c2cccc3cccnc23)CC1)N1CCN(c2ccc(Cl)cc2)CC1
→ 44	i	-0.6	-2.9	-10	1%	-5	-5.1	0.77
29. O=C(Oc1ccc[nH]c1=O)c1cccc(Cl)c1
→ -18	i	-0.8	0.5	-1	-5%	0	-2.6	0.69
30. O=c1[nH]c(-c2ccc(O)cc2)nc2scc(-c3cccs3)c12
→ -4	i	2.3	8.3	2	.	0	-1.1	0.71
31. COC(=O)c1ccccc1S(=O)(=O)C(C)(C)C
→ -2	.	-2.9	.	.	-2%	.	.	0.69
32. O=C(CN1C(=O)S/C(=C\c2ccccc2)C1=O)NNC(=O)c1ccccc1O
→ 0	.	-0.7	.	.	6%	.	.	0.7
33. O=S(=O)(N[C@@H]1CC[C@@H](CCn2cc(-c3cccc(F)c3)nn2)O[C@@H]1CO)c1ccc(Cl)cc1
→ .	i	.	-1.0	-4	.	-1	-0.9	.
34. C=CCN1C(=O)N(c2ccc(F)cc2)C(=O)C1CC(=O)Nc1ccc(Cl)cc1 (centres undefined)
→ -2	i	1.1	-2.4	-2	5%	-4	-0.4	0.72
35. O=C(c1cc(-c2ccncc2)nc2ccc(Br)cc12)N1CCN(c2ccccn2)CC1
→ -6	.	0.7	.	.	-44%	.	.	0.78
36. COCCNC(=O)c1onc(CSc2ccccc2C)c1C(=O)O
→ 6	i	3.0	3.4	7	1%	6	-7.4	0.71
37. Cc1nn(C)cc1C1C(C#N)=C(N)N(c2ccc(F)c([N+](=O)[O-])c2)C2=C1C(=O)CCC2 (centres undefined)
→ 8	.	-0.7	.	.	22%	.	.	0.64
38. Cc1ccc(C)c2c1cc(C)c1nnc(SCC(=O)Nc3nc4c(s3)CCCC4)n12
→ -16	.	-0.9	.	.	33%	.	.	0.63
39. CCOC(=O)N1CCN(S(=O)(=O)N2CCCC(C(=O)NCCCN3CCCCC3)C2)CC1 (centres undefined)
→ -5	i	3.1	1.6	5	-9%	9	0.0	0.69
40. CCOC(=O)N1CCN(C(=O)c2cc3ccccc3o2)CC1
→ -4	i	-1.2	-3.2	-1	.	-4	-0.3	0.62
41. C=CCn1c(=N)n(CC(=O)c2ccc(Br)s2)c2ccccc21
→ 1	i	0.8	4.3	-26	-14%	-20	6.1	0.63
42. NC(=O)CSc1nc(O)cc(=O)n1-c1ccccc1
→ -3	.	4.3	.	.	1%	.	.	0.69
43. CC(=O)Nc1ccc(N(C(=O)CNC(=O)c2ccco2)C(C(=O)NCC2CCCO2)c2ccccc2)cc1 (centres undefined)
→ 0	i	-2.3	0.0	14	-3%	15	-0.9	0.65
44. Cc1ccc(C)c(NC(=O)COC(=O)c2cccc(S(=O)(=O)N3CCCCC3)c2)c1
→ 7	.	1.1	-3.6	-3	3%	-6	-0.8	0.69
45. NS(=O)(=O)c1ccc(CCNC(=O)c2ccc(NS(=O)(=O)c3ccc4[nH]c(=O)[nH]c4c3)cc2)cc1
→ 18	i	0.7	-1.6	8	.	6	-0.5	.

Exported screen by screen: entries from further up.
(31) COC(=O)c1ccccc1S(=O)(=O)C(C)(C)C
(32) O=C(CN1C(=O)S/C(=C\c2ccccc2)C1=O)NNC(=O)c1ccccc1O
assay / entry	31	32
ALR H2O2 inh	-2	0
FGF22 binding	.	.
HNF4A DNA FP	-2.9	-0.7
rRNA inh HTS RFP	.	.
rRNA inh HTS OD600	.	.
Vif A3G	-2%	6%
rRNA inh HTS	.	.
MLL AF4-AF9 inh	.	.
Ecoli growth	0.69	0.7

New compounds follow.
Every second line gives: ALR H2O2 inh	FGF22 binding	HNF4A DNA FP	rRNA inh HTS RFP	rRNA inh HTS OD600	Vif A3G	rRNA inh HTS	MLL AF4-AF9 inh	Ecoli growth
46. CCOC(=O)c1nnn(CC(=O)Nc2cc(F)ccc2F)c1C(=O)OCC
→ 1	.	2.5	.	.	25%	.	.	0.71
47. O=S(=O)(O)c1cc(OS(=O)(=O)c2ccccc2)cc2ccccc12
→ .	i	-1.9	-0.5	-5	.	-4	1.4	0.67
48. Cc1cccc(NC(=O)C2CCN(S(=O)(=O)c3ccc(Cl)cc3)CC2)n1
→ .	i	-1.1	-1.0	-12	4%	-7	15	0.64
49. COc1ccccc1OCC(=O)Nc1ncc(C)s1
→ -18	i	-1.6	-2.4	-2	8%	2	-0.7	0.64
50. CC(C)[C@H](NC(=O)[C@H](CCCN=C(N)N)NC(=O)NC(Cc1ccccc1)C(=O)O)C(=O)NC(C=O)CCCN=C(N)N (some centres undefined)
→ 3	i	0.8	.	.	?	.	-10	.
51. C#CCOc1ccc(/C=C2/C(=O)NN(c3ccc(F)cc3)C2=O)cc1OC
→ 98*	i	-2.5	-1.3	17	5%	12	-0.5	0.69
52. Cc1ccc2[nH]cc(CCNC(=O)CN3C(=O)c4ccccc4C3=O)c2c1
→ .	i	-4.0	1.4	0	2%	6	0.4	0.66
53. COc1cccc(C(=O)Nc2ccccc2-c2ccccc2)c1
→ 1	i	-2.1	-12	-46	-2%	-26	-2.9	0.71
54. Cc1ccc(CNC(=O)c2ccccc2NC(=O)C2=CSCCO2)cc1
→ 35	i	0.3	3.4	10	1%	0	0.4	0.7
55. COc1cccc(CN2[C@@H](CO)[C@H](c3ccccc3)C23CN(C(=O)C2CCCCC2)C3)c1
→ .	i	.	0.4	-6	.	-4	1.2	.
56. CC(C)NC(=O)Nc1ccc2c(c1)C(=O)N([C@@H](C)CO)C[C@H](C)[C@@H](CN(C)S(=O)(=O)c1ccccc1)OCCCC[C@@H](C)O2
→ .	i	.	-2.9	4	.	-2	0.3	.
57. CC1CCC(NC(=O)C(NS(=O)(=O)c2cccc3nsnc23)C(C)C)CC1 (centres undefined)
→ -2	i	-3.0	-1.5	1	1%	2	-8.6	0.66
58. CCOC(=O)c1[nH]c(C)c(C(=O)Nc2cc(OC)ccc2OC)c1C
→ -9	.	-0.3	.	.	6%&5%	.	.	0.69
59. O=C(COC(=O)c1cc(Cl)nc2ccccc12)c1ccc(Cl)cc1
→ -1	i	4.7	-5.7	3	.	3	1.1	0.71
60. O=C(C[C@@H]1CC[C@H]2[C@@H](COC[C@H](O)CN2S(=O)(=O)c2ccc(Cl)cc2)O1)N[C@H]1CCN(Cc2ccccc2)C1
→ .	i	.	-2.0	-6	.	-4	-1.6	.
61. Cc1cccc(S(=O)(=O)Nc2cccc3c2C(=O)c2ccccc2-3)c1
→ 20	.	-1.0	.	.	-5%	.	.	0.74
62. COc1cccc(C2C(C(=O)c3sc(C)nc3C)=C(O)C(=O)N2CCN2CCOCC2)c1OC (centres undefined)
→ -18	.	-0.1	.	.	2%&-2%	.	.	0.7
63. NNC(=O)CSc1c(-c2ccccc2)c2cc(Cl)ccc2[nH]c1=O
→ 27	i	2.5	0.0	-5	-1%	2	-3.0	0.64
64. COc1ccc2c(c1)[C@H]1[C@H](CO2)[C@H](c2ccccc2)[C@]2(C)C(=O)Nc3cc(F)c(F)cc3C(=O)N12
→ .	i	5.5	-6.2	-14	.	-7	6.1	.
65. COc1ccc2ccccc2c1C1CC(=O)N2CN(Cc3ccco3)CSC2=C1C#N (centres undefined)
→ -89	i	0.7	-1.0	1	54µM*	6	-0.3	0.75

An excerpt; the hit share may differ from the screen's.
